Assay outcomes: PubChem, several laboratories
HIV Env fusion = inhibitors of HIV Env-mediated cell fusion; HeLa-JRFL Env/CEM21 cell fusion, luciferase; inhibition, % at 12.3 µM; hit rate 1.1% among 360,000; AID 651610;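 active = mean replicate inhibition score of at least 50 and every replicate individually at or above 50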;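 also: 0% = plate neutral controls and 100% = maraviroc near 300 nM; one replicate is shown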
PABP FP inh = PABP-poly(A) binding inhibition. P11940. inhibition, % at 35 µM. hit rate 1% among 290,000. PABP-poly(A) RNA binding, fluorescence polarization;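 active = 50% or more with normal probe brightness, or confirmed in later tests; about a fifth of its hits are not listed in these tables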;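 also: calls also rest on retests at 20 µM and on dose response follow-up; controls were probe without protein and protein plus probe with vehicle; some compounds called inactive have numbers as strong as hits; many hits fall short of the cut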
Target sequence (P11940 whole entry, looked up): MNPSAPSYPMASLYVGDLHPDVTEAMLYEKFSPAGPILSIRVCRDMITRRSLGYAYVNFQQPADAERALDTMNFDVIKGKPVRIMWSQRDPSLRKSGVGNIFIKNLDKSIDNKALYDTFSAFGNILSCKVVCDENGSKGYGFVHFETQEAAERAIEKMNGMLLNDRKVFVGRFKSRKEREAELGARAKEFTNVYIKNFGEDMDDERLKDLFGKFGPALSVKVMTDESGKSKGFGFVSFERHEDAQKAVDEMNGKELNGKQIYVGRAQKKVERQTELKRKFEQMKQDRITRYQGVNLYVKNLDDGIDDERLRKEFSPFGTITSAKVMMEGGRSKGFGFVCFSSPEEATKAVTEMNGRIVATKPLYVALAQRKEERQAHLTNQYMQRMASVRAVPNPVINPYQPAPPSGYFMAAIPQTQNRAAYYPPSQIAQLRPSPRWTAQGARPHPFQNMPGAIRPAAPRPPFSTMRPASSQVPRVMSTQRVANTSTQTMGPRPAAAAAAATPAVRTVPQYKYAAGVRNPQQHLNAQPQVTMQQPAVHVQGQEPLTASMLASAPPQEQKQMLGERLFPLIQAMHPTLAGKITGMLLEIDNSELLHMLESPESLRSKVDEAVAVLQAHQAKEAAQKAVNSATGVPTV
Rce1 inh = blocks yeast Ras-converting enzyme. yeast membranes, quenched prenylated peptide cleavage fluorescence. calls only. hit rate 0.27% among 290,000;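 active = fall in fluorescence gain of 50% or more versus controls, with final raw signal at or below 3038400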;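 also: plate controls were neutral control wells for no effect and wells lacking membranes for full effect; tested at 10 µM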
Target sequence (Q03530 whole entry, looked up): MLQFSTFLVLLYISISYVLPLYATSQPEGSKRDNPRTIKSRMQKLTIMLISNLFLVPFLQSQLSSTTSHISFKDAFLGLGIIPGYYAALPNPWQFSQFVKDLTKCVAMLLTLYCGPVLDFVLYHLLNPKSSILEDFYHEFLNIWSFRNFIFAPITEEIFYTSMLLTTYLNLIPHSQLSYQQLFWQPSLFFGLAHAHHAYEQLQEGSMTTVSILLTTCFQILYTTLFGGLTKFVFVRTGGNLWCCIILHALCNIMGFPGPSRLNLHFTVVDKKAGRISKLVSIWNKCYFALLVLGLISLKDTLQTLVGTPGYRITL
MT1-MMP act inh = blocks activation of human MT1-MMP | hit rate 0.061% among 360,000 | GFP/RFP ratio change, % at 20 µM | AID 651647 | P50281 | HT1080 RFP-PRO-GFP cells, GFP/RFP ratio fluorescence, overnight; percent of plate control window, DMSO zero;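 active = GFP/RFP ratio change of at least 30% with cell ATP level not reduced by more than half and red fluorescence within 50% of control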; also: strong numbers were not always called active
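Test system: HT1080 RFP-PRO-GFP cells; Benchmarks: DMSO and RFP-L50D-GFP cell wells; Timing: cells overnight before dosing, compound overnight, 37 °C, 5% CO2; Compound: one 20 µM compound dose with 1% DMSO; Read-out: GFP/RFP fluorescence ratio.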
UUG fidelity = alters start codon recognition fidelity in yeast; hit rate 0.13% among 350,000; S. cerevisiae UUG-firefly luciferase reporter, luminescence/redox ratio; activity score, % at 18.7 µM;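 active = replicate mean at a twofold rise or more, about +100% in these data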;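 also: firefly luciferase made from a UUG start codon reports start codon fidelity; reporter light over untreated wells divided by growth signal over untreated wells; some hits fall short of that in this replicate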
eIF4H inh = inhibitors of RNA binding by human eIF4H. Q15056. eIF4H fluorescence polarization binding assay. inhibition, % at 35 µM. hit rate 0.94% among 290,000. AID 2012;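 active = 50% or more with normal probe brightness, or confirmed in later tests; about a fifth of its hits are not listed in these tables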;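 also: calls also rest on retests at 20 µM and on dose response follow-up; 0% = protein and probe with vehicle and 100% = probe without protein; strong numbers were not always called active; many hits fall short of the cut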
CSC inhib = blocks cancer stem cells | cancer stem cell-like cells viability, luminescence | inhibition, % at 7.5 µM | hit rate 1.1% among 300,000 | AID 2717;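 active = mean at 75% or more and at least half the replicates too; tested in HMLE shEcad cells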;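 also: 0% = median of negative and 100% = median of positive control wells; the first replicate is given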
eIF4H inh retest = recorded beside eIF4H inh, whose call it bears; inhibition, %; compound at 20 µM; confirmation average;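 mean of two retest wells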
PABP FP inh retest = further read-out of PABP FP inh, marked with its call; inhibition, %; compound at 20 µM; confirmation repeats;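 mean of two retest wells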
MT1-MMP act inh RFP = further read-out of MT1-MMP act inh, marked with its call; RFP signal change, %; measured here: RFP expression control read;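 0 = vehicle wells; hits needed this value within 50% of zero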
Numbers without * were called inactive; i = inactive; · = no result given. These rows are one share of the data. The share of hits here may be higher or lower than overall.

SMILES	HIV Env fusion	PABP FP inh	Rce1 inh	MT1-MMP act inh	MT1-MMP act inh RFP	UUG fidelity	eIF4H inh	CSC inhib	others
O=C(Nc1scc(-c2cccs2)c1C(=O)O)c1cccs1	·	21	i	3	3	-12	0	12
COc1ccc(NC(=O)CC2C(=O)N(C)C(=S)N2CCc2ccc(F)cc2)cc1 (stereo unspecified)	9	-1	i	7	-5	-1	-1	46
Cc1ccc(C(=O)N(Cc2cccs2)C2CCS(=O)(=O)C2)cc1 (stereo unspecified)	-1	-8	i	-6	0	-8	-4	-11
CC1(C)Cc2c(c(N3CCOCC3)nc3sc4c(NCCN5CCOCC5)nnnc4c23)CS1	25	-3	i	-7	-5	·	0	-8
CN(C)S(=O)(=O)Oc1ccsc1C(=O)Nc1ccccc1Cl	-1	12	·	2	2	-18	8	33
O=C(CN(Cc1ccc(F)cc1)C(=O)c1csnn1)NCc1ccccc1	-7	-2	i	1	2	-11	-1	-16
Cc1cccc(C(=O)NCc2nnc(SCC(=O)NC(C)c3ccccc3)n2C)c1 (stereo unspecified)	·	-2	i	3	4	·	-3	-1
COc1ccccc1OCC(=O)Nc1nnc(-c2ccco2)s1	·	60*	i	1	-1	-9	96*	·
O=[N+]([O-])c1ccc(N2CCCC2)cc1NC(c1ccccc1)c1ccccc1	·	-3	i	-3	-8	-7	3	4
O=C(NC1(C(F)(F)F)Oc2ccccc2O1)N1CCCC1	3	8	i	4	-7	-23	-3	45
CN1CCCCCC1=Nc1ccccc1C#N	·	-3	i	1	5	-16	-5	-11
O=C(c1ccco1)N1CCN(S(=O)(=O)c2ccc([N+](=O)[O-])cc2)CC1	2	0	i	-1	-4	·	-7	-7
CCC(C(=O)Nc1ncc(C)s1)c1ccccc1 (stereo unspecified)	19	-6	i	-7	-8	·	-12	-7
Cc1ccc(Nc2c(-c3ccc(N4CCOCC4)cc3)nc3ncccn23)c(C)c1	13	8	i	-4	-2	-6	-1	-12
Cc1nnc(SCC(=O)Nc2sc3c(c2C(=O)c2ccccc2)CCCC3)s1	57*	16	i	-1	3	-1	-12	-15
O=[N+]([O-])c1cc(Br)c(O)c(C=Nc2ccc(N3CCOCC3)cc2)c1	5	5	i	40*	29*	·	43	8
CCNC(=O)C1CCCN(C(=O)c2ccc3c(c2)CCO3)CC1 (stereo unspecified)	-2	·	·	7	5	-11	·	·
CCOC(=O)C(O)(NC(=O)c1cccnc1)C(F)(F)F (stereo unspecified)	·	8	i	1	1	-23	0	-9
Cc1ccc(C(=O)OC(C)C(=O)NC2CCCCC2C)cc1S(=O)(=O)N1CCOCC1 (stereo unspecified)	-10	5	i	4	-3	-15	-9	-8
CCC(C)(C)NC(=O)c1ccc2c(c1)N(CC(=O)OC)C(=O)C(C)(C)O2	0	0	i	0	-2	4	-1	4
CC(=O)N/C(=N/c1nc(C)cc(C)n1)Nc1ccc(C)cc1Cl	6	0	i	0	-2	-23	-12	·
COC1=C(Nc2ccc(OC)cc2)C(=O)c2ccccc2C1=O	2	7	i	11	1	·	0	-8
CC1(C)Oc2ccc3ccc(=O)oc3c2C(N2CCCCC2)C1O (stereo unspecified)	10	64	i	-21	2	-4	42*	-20	eIF4H inh retest=85*;PABP FP inh retest=42
CCn1ncc(Br)c1C(=O)Nc1cccc(F)c1	-29	-3	i	-2	-1	·	-2	-17
COc1ccccc1C(C)NC(=O)c1ccccc1SCC(=O)N1CCCC1 (stereo unspecified)	-11	·	i	-1	-2	·	·	-9
COc1ccc(/C=C/C(=O)C2C(=O)C=C(C)OC2=O)cc1O (stereo unspecified)	-31	0	i	0	2	-6	12	14
Cc1cc(=O)[nH]c(CN2CCC(c3ccccc3)CC2)n1	21	-6	i	-1	-1	·	-2	-3
O=C(NCC1CCCO1)c1ccc(COc2ccccc2)cc1 (stereo unspecified)	-14	13	i	-5	-3	10	3	-9
CC(C)C(C(=O)NC(C)(C)C)N(CCN1CCOCC1)C(=O)CNS(=O)(=O)c1ccccc1 (stereo unspecified)	18	-6	i	0	-3	-11	-6	6
COc1ccc(C2C(C#N)=C(N)N(N(C)C)C3=C2C(=O)CC(C)(C)C3)cc1OC (stereo unspecified)	11	3	i	1	1	·	-3	-2
COc1ccc(NC(=O)COC(=O)c2c3c(nc4ccccc24)CCCC3)cc1Cl	·	-7	i	1	-7	-9	-2	51
Cc1cc(NC(=O)c2ccc(S(=O)(=O)N3CCc4ccccc43)cc2)no1	-16	2	i	0	-4	·	18	-33
Cc1ccc(S(=O)(=O)N2CCN(CC3CC4C=CC3C4)CC2)cc1 (stereo unspecified)	14	8	i	2	1	2	12	·
COc1cc(CNCCN(C)C)c(Br)cc1OC1CCCC1	7	7	i	4	3	·	0	·
CC(C)(C)c1cc(C(=O)N/N=C/c2ccc(F)cc2)n(-c2ccccc2)n1	·	-3	i	3	-5	7	-6	59
CC1=C(C(=O)N2CCCC(C(=O)c3cccc4ccccc34)C2)OCCO1 (stereo unspecified)	10	-7	i	-1	-16	·	23	2
CC(=O)c1cccc(NC(=S)NC(=O)C(C)C)c1	-6	-6	i	3	4	-23	8	·
Cc1ccc(-c2nc3c(c(=O)c4ccccc4n3C)c(=O)n2-c2ccccc2)cc1	-185	-1	i	-4	-4	·	-1	-33
Cc1cccc(CN2CCN(Cc3cccc(-n4cccn4)c3)CC2CCO)n1 (stereo unspecified)	-6	3	i	1	0	·	8	-6
O=C(CCCOc1ccccc1)Nc1ccc(Br)cc1	-9	·	i	12	0	-19	·	-5
Cc1cc2nc(-c3ccc(C#N)cc3)c(Cc3cccc(F)c3)n2c(C)c1Br	-58	·	·	-4	-6	-26	·	·
Cc1ccc(/C=N/n2cnnc2)s1	-165	-1	i	3	2	-17	5	-1
COCCNC(=S)N(CCCN(C)C)Cc1cc2cc3c(cc2[nH]c1=O)OCCO3	-113	4	i	-2	1	-14	10	-5
O=C(COc1ccc(S(=O)(=O)NC2CCCC2)cc1)N1CCCCC1	-46	8	i	1	-3	-15	17	2
CCOc1ccc(-n2nnnc2SCC(=O)NNC(=O)c2ccco2)cc1	-8	3	i	1	4	·	-6	-10
COc1ccc(-c2ccc(SCC(=O)NC3CCCCC3)nn2)cc1OC	-14	2	i	0	-6	-2	-41	19
FC(F)(F)c1ccc(C2NCCc3sccc32)cc1 (stereo unspecified)	-9	-1	i	0	4	·	-2	5
CC1CCN(S(=O)(=O)c2ccc(C(=O)NCc3ccco3)cc2)CC1	0	-5	i	-2	-2	·	0	-20
COc1ccc(NC2c3ccccc3C(=O)N2Cc2ccco2)cc1OC (stereo unspecified)	·	-6	i	1	-4	-2	-3	-4
CCOC(=O)c1c(/N=C/C2C(=O)CC(C)(C)CC2=O)sc2c1CCCC2	-11	-7	i	4	5	·	-8	4
CCCCCNc1nc2ccccc2nc1NS(=O)(=O)c1cccs1	·	15	i	-7	-5	-6	5	14
CCOc1ccccc1-c1cc(-c2ccccc2)nc2c1c(=O)n(C)c(=O)n2C	-34	6	i	-1	-1	-16	-1	-4
O=C(OCc1ccc(Cl)c(Cl)c1)c1ccccn1	-36	13	i	3	8	-9	2	-9
COc1ccc(/C=N/NC(=O)c2nc(-c3ccccc3)cc(-c3ccccc3)n2)cc1OC	·	6	i	-4	-2	·	4	-11
COCCCNC(=O)C1CCN(C(=O)Nc2ccc(Cl)cc2)CC1	-32	2	i	4	0	-17	-8	-14
COc1ccc(N(CC(=O)N2CCN(c3ccc(Cl)cc3)CC2)S(=O)(=O)c2c(C)noc2C)cc1	31	1	i	1	-6	3	-4	11
C=CCN(CC=C)CC(=O)Nc1ccc(S(N)(=O)=O)cc1	·	6	i	1	3	1	4	0
O=C(CCCl)N1CCCC2(CCCCC2)C1	9	7	i	1	5	-10	2	-12
Cc1ccc(N(CC(=O)NCc2cccs2)S(=O)(=O)c2cccs2)cc1	·	-13	i	-3	-2	-17	-5	11
CCOc1ccc(S(=O)(=O)N2CCOCC2)cc1NC(=O)CSCc1ccc(C)cc1	42	·	·	-4	-14	-8	·	53

By substructure: those above containing an aryl thioether with sulfur outside any ring.
SMILES	HIV Env fusion	PABP FP inh	Rce1 inh	MT1-MMP act inh	MT1-MMP act inh RFP	UUG fidelity	eIF4H inh	CSC inhib	others
Cc1cccc(C(=O)NCc2nnc(SCC(=O)NC(C)c3ccccc3)n2C)c1 (stereo unspecified)	·	-2	i	3	4	·	-3	-1
Cc1nnc(SCC(=O)Nc2sc3c(c2C(=O)c2ccccc2)CCCC3)s1	57*	16	i	-1	3	-1	-12	-15
COc1ccccc1C(C)NC(=O)c1ccccc1SCC(=O)N1CCCC1 (stereo unspecified)	-11	·	i	-1	-2	·	·	-9
CCOc1ccc(-n2nnnc2SCC(=O)NNC(=O)c2ccco2)cc1	-8	3	i	1	4	·	-6	-10
COc1ccc(-c2ccc(SCC(=O)NC3CCCCC3)nn2)cc1OC	-14	2	i	0	-6	-2	-41	19

(further entries)
SMILES	HIV Env fusion	PABP FP inh	Rce1 inh	MT1-MMP act inh	MT1-MMP act inh RFP	UUG fidelity	eIF4H inh	CSC inhib	others
C=C(C)COc1ccc2c(C)c(CC(=O)N3C[C@H]4C[C@@H](C3)c3cccc(=O)n3C4)c(=O)oc2c1	·	2	i	0	-1	-11	-8	1
CCOc1ccc(N(CC(=O)NC(C)C)C(=O)CCC(=O)Nc2ccccn2)cc1	3	10	i	-1	2	-26	5	-1
CC#CCN1c2ccccc2[C@]23C[C@@H](C(=O)OC)N(C(C)=O)C2=NC(C(=O)OC)=C(C(=O)OC)[C@H]13	-22	3	i	-2	0	-3	4	13
CN(C)S(=O)(=O)c1cccc(NC(=O)COC(=O)c2ccc3ccccc3n2)c1	19	·	·	1	5	7	·	8
O=C(Nc1ccccc1)N(CCc1ccncc1)C1CCCCC1	1	·	i	3	3	-6	·	13
CC(C)Sc1nc2c(c(=O)[nH]c(=O)n2C)n1CCc1ccccc1	·	2	i	6	1	-2	1	-9
COc1ccc(OCC(=O)NNC(=O)Cn2c(=O)cnc3ccccc32)cc1	-4	·	·	-1	4	-7	·	·
COc1ccc(S(=O)(=O)N2CCCC2CNC(=O)C(=O)NCCc2ccccc2)cc1 (stereo unspecified)	38	·	i	-4	-12	-4	·	41
Cc1noc(C)c1COc1ccc(C(=O)OCC(=O)Nc2ccc(C(=O)N(C)C)cc2)cc1	i	·	i	12	6	11	·	-1
COC(=O)c1sccc1-c1ccc(/C=N/OC(=O)c2cccs2)o1	-161	-5	i	-1	-2	-10	-8	-2
O=C(CSc1nnc(Cc2ccccc2)n1Cc1ccco1)NC1CCCC1	-4	4	i	-6	-4	·	2	-4
O=C1C=C(NCc2ccccc2)c2ccccc2C1=O	37	1	i	6	2	·	-11	·
Cc1nn(CCC#N)c(NC(=O)c2ccc(Cl)cc2Cl)c1P(=O)(Nc1ccc([N+](=O)[O-])cc1)N1CCOCC1 (stereo unspecified)	-24	-6	i	1	-4	-4	-3	-9
Cc1nn(C)c(C)c1-c1c(C#N)c(N)nc2c1CCCCCC2	-3	-3	i	-1	2	-17	5	·
O=C(Nc1ccc(F)cc1)c1cccnc1N1CCOCC1	·	-3	·	5	8	·	-6	10
CC1=CC2=NC(=O)CC(C)(C(=O)N(CC(=O)NC3CCCC3)Cc3ccc(Cl)cc3)N2C=C1 (stereo unspecified)	0	5	i	2	3	2	3	-7
COc1cccc(C2N(c3ccccn3)C(=O)C3CCCN32)c1OC (stereo unspecified)	-55	-12	i	4	3	-15	-1	-13
CCCc1c(C(=O)Nc2ccc(C(F)(F)F)cc2)cnn1-c1ccccc1	0	-9	i	-2	-7	·	-7	26
Cn1c(=NC(=O)CSCC(=O)N2CCCC2)sc2ccccc21	·	2	i	1	2	·	-7	-3
COC(=O)c1scc(S(=O)(=O)c2ccccc2)c1N	6	3	i	3	-6	·	-8	-11
